# Ecoli rRNA inh – selective bacterial rRNA inhibition in E. coli | GFP signal change (wild-type ribosome), % (concentration not given with the values) | 350,000 tested, 1.6% active | E. coli WT GFP vs humanized-ribosome RFP mutants, fluorescence, 24 h; hits give low values; DMSO median 0, no signal -100;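 active = significant combined selectivity score with lowered wild-type GFP, culture density cut under 30%, mutant RFP and density less affected; inactive = any of these conditions unmet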; note: one replicate is shown; some compounds called inactive have numbers as strong as hits
# T cruzi inh – blocks replication of Trypanosoma cruzi. T. cruzi beta-gal in NIH3T3, luminescence, 90 h. inhibition, % (test concentration not listed). 300,000 tested, 1.4% active. AID 1885;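 active = mean inhibition across valid replicates above about 55%, limit read from the data; inconclusive = mean below that limit but half or more replicates reach it; inactive = mean below it, under half of replicates reach it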;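 note: signal also drops with host cell toxicity which is not excluded here; 0% = plate median of DMSO wells and 100% = zero luminescence signal; higher percent means less beta-gal luminescence so fewer parasites; stock transfer was 50 nL into about 50 µL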
# AF4-AF9 inh – blocks AF4 peptide binding to human AF9; AID 651704; inhibition, % at 10 µM; 350,000 tested, 0.47% active; AlphaScreen, biotin-AF4 peptide binding to FLAG-AF9; P42568;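 active = every replicate reaching a set inhibition limit, whatever the replicate mean, cut at about 25% in these data; inconclusive = mean inhibition reaches that limit but some replicates miss it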;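 note: 0% = plate neutral control median and 100% = total signal loss; the record names both 10 and 1 µM as test concentration; the first replicate is given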
# Target sequence (P42568 whole entry, looked up): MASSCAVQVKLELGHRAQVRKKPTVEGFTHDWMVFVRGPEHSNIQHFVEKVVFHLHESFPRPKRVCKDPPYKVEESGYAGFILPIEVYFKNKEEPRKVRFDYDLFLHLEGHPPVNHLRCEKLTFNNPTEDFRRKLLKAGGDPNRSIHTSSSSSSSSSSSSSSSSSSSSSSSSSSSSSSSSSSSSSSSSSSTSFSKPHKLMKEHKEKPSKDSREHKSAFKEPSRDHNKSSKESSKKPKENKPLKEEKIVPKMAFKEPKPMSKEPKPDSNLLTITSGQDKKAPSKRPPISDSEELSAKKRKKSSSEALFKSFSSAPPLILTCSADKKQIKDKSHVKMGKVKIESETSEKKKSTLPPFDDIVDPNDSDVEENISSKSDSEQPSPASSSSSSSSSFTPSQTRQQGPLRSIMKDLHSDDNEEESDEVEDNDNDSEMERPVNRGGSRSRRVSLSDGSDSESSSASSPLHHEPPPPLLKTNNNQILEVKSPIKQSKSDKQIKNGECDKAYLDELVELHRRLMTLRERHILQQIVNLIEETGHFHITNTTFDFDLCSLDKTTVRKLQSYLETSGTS
# Calb FLC – affects C. albicans growth with fluconazole; growth inhibition, % (concentration not given with the values); C. albicans CaCi-2 (fluconazole-resistant clinical isolate) + fluconazole, Alamar Blue growth, 48 h; 300,000 tested, 0.57% active;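 active = most replicates above 75%; inconclusive = exactly half above 75%; inactive = most below 75%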;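 note: all wells also contain fluconazole at 8 µg/ml as a sub-toxic cotreatment; 0% = median of DMSO wells and 100% = median of geldanamycin control wells; wells of about 8 µL received 7.5 nL stock; the first replicate is given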
# Vif A3G – HIV-1 Vif–A3G interaction blockers – biochemical, TR-FRET, GST-Vif 1-94, biotin-A3G peptide, dose response retest, primary screen (AID 1117319); TR-FRET GST-Vif / biotin-A3G peptide binding; higher % means a stronger effect; test concentration not given here; strong numbers were not always called active; 260,000 tested, 0.57% active; one-dose inhibition, %; IC50 in µM for titrated hits;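 active = above the screen mean plus three standard deviations and confirmed in dose response; inconclusive = results disagree or hit not tested in dose response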;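 note: Vif residues 1-94 fused to GST binding biotinylated APOBEC3G peptide 110-148; 0% = full assay without inhibitor and 100% = GST in place of GST-Vif; retest series ran down from 100 µM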
# RanGTP-Impb inh – disruptors of Ran-importin-beta complex formation – biochemical, FRET, CFP-Ran, YFP-importin-beta, homogeneous, primary screen. cell-free CFP-Ran/YFP-importin-beta FRET ratio. inhibition, % (concentration not given with the values). 300,000 tested, 1.1% active. AID 2216;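 active = most replicates above 15%; inconclusive = exactly half above 15%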;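 note: 0% = DMSO wells and 100% = Ran loaded with GDP instead of GTP; wells of about 40 µL received 100 nL stock; the first replicate is given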
# A1 inh – inhibitors of the anti-apoptotic protein A1, read as caspase activation; MEF A1-2A-BIM cells, Caspase-Glo 3/7 luminescence, 3 h; percent of clofoctol response, vehicle zero; 330,000 tested, 0.066% active; caspase activation, % (test concentration not listed); AID 2462;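 active = over half of replicate activation scores above 10%, or exactly half above 10 with the replicate mean above 10; inconclusive = replicate mean below 10 yet half the replicates above 10; inactive = over half of replicates below 10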;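 note: wells of about 30 µL received 50 nL stock; many hits fall short of the cut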
# Beta apoptosis – beta cell apoptosis inhibition. INS-1E cytokine-induced death, ATP luminescence, 48 h; percent of positive-control rescue, neutral wells zero. protection from apoptosis, % (test concentration not listed). 300,000 tested, 0.8% active. AID 435005;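 active = all replicates at 75% or more, or half of them and the mean; inconclusive = half reach 75% but not the mean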;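 note: 0% = cytokine-treated negative control wells and 100% = positive control rescue; higher means more ATP so stronger rescue from cytokine killing; wells of about 40 µL received 100 nL stock; the first replicate is given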
# Ecoli rRNA inh OD600 – second read-out of Ecoli rRNA inh, no call of its own (marks repeat the call); OD600 change, %; measured here: OD600 growth;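 optical density of the mix in the first replicate; 0 = DMSO median and -100 = no signal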
# Ecoli rRNA inh RFP – recorded beside Ecoli rRNA inh, whose call it bears; RFP signal change, %; measured here: RFP humanized mutant strains;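 first replicate; 0 = DMSO median and -100 = no signal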
# * marks the source's active call; other numbers are inactive results; u = inconclusive; x = not tested or not shown; & = joins results of further samples. These rows are one share of the data; the hit share may differ from the screen's.
SMILES,Ecoli rRNA inh,Ecoli rRNA inh OD600,Ecoli rRNA inh RFP,T cruzi inh,AF4-AF9 inh,Calb FLC,Vif A3G,RanGTP-Impb inh,A1 inh,Beta apoptosis
C=CCn1c(C)cc(C(=O)COC(=O)CNC(=O)c2ccccc2)c1C,-24*,-3.5*,2.2*,-29,3.8,4,x,3.3,-0.1,-10
CCCNC(=O)C1CCN(S(=O)(=O)c2ccc3c(c2)OCCO3)CC1,10,7,0.0,-17,-1.2,3,-7%,-0.8,0.3,-2
O=c1[nH]c(C2CCN(S(=O)(=O)c3ccc([N+](=O)[O-])cc3)CC2)nc2c1nnn2Cc1ccccc1,0,1,0.9,50,4.3,-12,x,4.2,1.1,15
CC1(C)CC(=O)C2=C(C1)N=C1SCCC(=O)N1C2c1ccccc1 (centres undefined),5,9,-0.2,-8,10,-7,-3%,-4.5,0.1,1
COc1ccc(CN(CC2CCC(C(=O)O)CC2)C(=S)Nc2ccc(C)c(Cl)c2)cc1 (centres undefined),-33*,-21*,-5.6*,58*,-0.2,12,-9%,-5.1,-0.1,-12
O=C(COC(=O)c1cccs1)Nc1ccc(F)c(F)c1,2,0,-2.9,x,0.4,x,-1%,x,0.5,1
O=C(Cn1nnc(-c2cc(Cl)ccc2-n2cnnn2)n1)N1CCCc2ccccc21,x,x,x,8,x,x,-11%&-2%,-1.2,-0.3,-1
COc1ccc(S(=O)(=O)NC2CC2)cc1Br,14,14,0.9,-14,-2.7,3,x,-1.3,-0.6,-8
O=C(CSc1nc2ccccc2c(=O)n1CCCN1CCOCC1)NC12CC3CC(CC(C3)C1)C2,-44,-70,-1.4,32,10,-3,2%,0.3,-0.2,6
CCn1cc(C(=O)NC(C)C23CC4CC(CC(C4)C2)C3)cn1 (centres undefined),-6,-6,-1.0,13,3.6,-6,x,-3.1,-0.1,1
COc1ccc(NC(=O)c2cc3nc(-c4ccccc4)cc(-c4ccccc4)n3n2)c(OC)c1,x,x,x,-12,x,9,-1%,2.0,0.3,10
COC(=O)[C@]1(Cc2ccccc2)N[C@H](CN(C)C(=O)NC(C)C)[C@@H]2C(=O)N(Cc3ccccc3)C(=O)[C@@H]21,11,-1,0.0,x,-1.8,x,3%,x,0.0,-5
Cc1ccc(N=Cc2cc(Cc3ccccc3Cl)cc([N+](=O)[O-])c2O)c(O)c1,x,x,x,-2,x,109*,24%,-7.3,-0.1,4
O=C(OCc1nnc(-c2ccccc2)o1)c1ccc(-n2cnnn2)cc1,-1,-2,-1.0,9,-4.8,1,1%,1.8,-0.4,4
CN(C)C(=O)c1nc2ccc(Cl)cn2c1CN1CCCC(OCc2ccccc2)C1 (centres undefined),3,-3,-0.1,12,0.8,-25,76%,0.4,0.5,0
CCN(C(=O)CSc1nnc(Nc2cccc(C)c2C)s1)C1CCS(=O)(=O)C1 (centres undefined),x,x,x,-20,-6.5,-20,x,2.7,1.2,-3
Nc1c2c(nc3ccc(Br)cc13)N(Cc1ccccc1)CC2,-8,-6,-3.5,-7,5.5,-23,x,-3.4,0.5,1
CCCn1ncc(OC)c(Cl)c1=O,x,x,x,-1,x,8,27%,-0.9,0.5,-2
CC(N)c1ccc(Cl)cc1Cl (centres undefined),x,x,x,-23,x,-6,11%,2.9,1.1,1
Cc1ccc(NC(=O)/C(C#N)=C/c2cc(C)n(-c3ccc(N4CCOCC4)c([N+](=O)[O-])c3)c2C)c(C)c1,6,13,-1.2,3,x,-2,1%,-0.1,-1.4,-3
Cc1cccc(C(=O)Nc2cccc(NC(=O)c3ccccc3)c2)c1,5,-3,0.5,3,0.9,16,-1%,2.4,-2.2,8
COc1cccc(CNc2nnnn2C)c1OC,-1,-3,5.5,-6,-1.4,0,x,1.4,0.8,-6
O=C1NC(=S)N/C1=C\c1cccnc1,21,5,1.8,2,-2.3,0,3%,-0.9,0.4,-17
Cc1cccc(NC(=O)C2CCN(c3nc(C)cc(C)n3)CC2)c1,x,x,x,-7,x,-42,-9%,0.6,0.3,-3
CCOC(=O)N1C=CC(C)=C[C@@H]2[C@@H](N3C(=O)c4ccccc4C3=O)C(=O)N21,x,x,x,-9,x,-7,18%,2.7,0.8,0
Cc1cccc(NCc2nc(SCC(=O)Nc3ccccc3)n[nH]2)c1,3,1,1.2,-4,-0.6,2,x,2.9,0.5,5
COc1ccc(N2C(=O)CC(C3CCCO3)C2=O)cc1 (centres undefined),21,13,2.6,-10,-3.0,14,-3%,-0.2,0.5,-8
COc1ccc(S(=O)(=O)N2CCCCC2)cc1C(=O)N1CCCC1,3,8,1.0,10,-3.6,-16,x,1.5,1.4,-9
O=C(NNc1c(Cl)cccc1Cl)c1ccno1,-3,6,6.0,x,4.1,-20,-11%,-5.8,1.4,-6
Cc1c(Cl)cccc1NC(=O)CN1CCN(CCN=CC2=C(O)CC(c3ccccc3)CC2=O)CC1 (centres undefined),8,8,2.3,-10,1.6,-1,3%,1.5,u,-7
O=C(CSc1nc2c(c(=O)n1-c1ccccc1)SCC2)N1CCOCC1,-2,-5,0.2,2,-5.7,-2,-3%,-2.3,0.2,2
N#CCCN(Cc1cccnc1)S(=O)(=O)c1ccc2ccccc2c1,-6,-11,0.9,x,-0.7,x,14%,x,0.1,-8
COc1ccc(NC(=O)c2cc3c(=O)n4ccccc4nc3n2C)c(OC)c1,3,11,-1.7,-4,-1.8,4,-4%,4.1,0.2,4
Nc1cc[n+](CC(=O)c2ccc3c(c2)OCCO3)cc1,x,x,x,12,-2.6,-17,x,-1.8,-0.1,44
Cc1ccc(CSc2nnc(C)c(=O)n2N)cc1,5,7,1.5,0,-7.2,22,x,0.7,0.4,5
NC(=O)c1ccccc1NC(=O)Nc1ccc(F)c(Cl)c1,3,8,-0.8,-5,-2.8,17,x,u,-7.7,-4
CCCCOC(=O)Cc1c(O)c2ccccc2[nH]c1=O,x,x,x,-2,x,2,-3%,-2.4,0.7,-8
CN(Cc1c(F)cccc1Cl)C(=O)c1ccc2ccccc2n1,-2,-18,2.3,9,-1.2,1,x,-4.0,0.6,-10
CC(=O)c1ccc(N2CCN(C(=O)c3cc(-c4ccc5c(c4)OCO5)nc4ccccc34)CC2)cc1,x,x,x,15,x,7,-6%&-19%,4.0,0.0,x
Cc1cc(C)nc(NNC2=CC(=[N+]3CCCC3)CCC2)n1,14,11,-9.2,6,2.4,-5,6%,2.1,-0.8,13
COc1ccc(S(=O)(=O)N2CCN(CC(=O)NC3CC3)CC2)cc1,10,15,-0.2,1,0.3,3,x,3.0,0.1,-1
Cc1cccc(N2CCN(Cc3ccoc3)CC2)c1C,7,-3,2.1,-16,18,0,2%,u,0.7,-5
O=C(COC(=O)c1cc(Br)ccc1O)NC1CCCCCC1,10,11,3.6,-10,0.3,-11,-10%,-0.9,0.0,-1
C[C@H](NC(=O)c1ccco1)C(=O)Nc1cccc([N+](=O)[O-])c1,7,10,-0.5,-11,2.8,-8,89%,1.7,1.0,-8
OCCC1CN(CC(c2ccccc2)c2ccccc2)CCN1C1CCCC1 (centres undefined),1,-3,1.4,-17,-14,-12,9%,0.4,-1.1,0
CCOC(=O)C1CCCN(C(=O)c2ccc(C)c(S(=O)(=O)N3CCCCC3)c2)C1 (centres undefined),-1,-2,0.0,x,0.0,x,-3%,x,-0.9,-2
O=C1NC(=Nc2ccc(O)cc2)S/C1=C/c1ccco1,-10,2,-1.9,-23,-1.3,-27,u,-5.8,0.1,1
O=C(Nc1ccc2c(c1)OCO2)c1cccc(F)c1,x,x,x,-9,x,-10,2%,4.0,-7.3,5
Cc1ccc(NC(=S)NCC(O)c2ccccc2)c(C)c1 (centres undefined),10,9,1.6,-15,3.3,-4,x,3.3,1.3,-8
COC(=O)[C@@]1(Cc2ccc(F)cc2)[C@H]2c3cc(C(=O)N4CCCC4)n(Cc4ccc(C(F)(F)F)nc4)c3C[C@H]2CN1C(=O)c1ccccc1,1,8,-0.7,34,7.1,15,x,2.6,-0.8,-5
O=C(CNC(=O)c1cccc(Br)c1)N/N=C/c1ccc[nH]1,12,8,5.4,-16,-11,-21,14%,-2.4,1.6,-4
O=C(c1cc(-c2ccccc2)nc2ccccc12)N1CCN(c2ccccn2)CC1,x,x,x,16,x,13,27%,1.3,0.7,x
COc1cccc(NC(=O)c2ccc3nc(C)sc3c2)c1,-7,1,0.0,-6,2.6,99*,-5%,-0.5,-8.6,0
O=C(NCCn1ccc2ccccc21)c1ccc(S(=O)(=O)N2CCOCC2)cc1,5,7,12,-4,0.9,-10,-1%,-1.2,0.2,3
CCOc1ccc(N(CC(=O)OC)S(=O)(=O)c2ccc(OC)c(OC)c2)cc1,x,x,x,2,x,3,-2%,2.7,0.4,-1
COC(=O)c1sc2ncn(CC(=O)N(C)C3CCCCC3)c(=O)c2c1C,5,2,0.8,9,1.4,-3,x,-10,0.7,-1
N#Cc1c(SCC(N)=O)nc(-c2ccccc2)c2c1CCCC2,x,x,x,0,x,-4,-28%,-1.4,-0.4,8
CCOc1cc(N2CCOCC2)c(OCC)cc1NC(=O)CSc1n[nH]c(N)n1,9,10,5.3,-2,3.4,-5,u,-2.2,-0.1,-8
COc1ccccc1NC(=O)c1ccc(S(=O)(=O)N2CCCC(C)C2)cc1 (centres undefined),-3,-14,-1.0,-6,-3.2,3,x,0.9,-0.8,1
COc1cc(OC)cc(C(=O)Nc2nnc(Cc3ccc(OC)c(OC)c3)s2)c1,3,0,1.1,6,-1.1,22,x,-4.6,0.6,-7
# Continuation:
SMILES,Ecoli rRNA inh,Ecoli rRNA inh OD600,Ecoli rRNA inh RFP,T cruzi inh,AF4-AF9 inh,Calb FLC,Vif A3G,RanGTP-Impb inh,A1 inh,Beta apoptosis
COc1ccc(C(=O)O/N=C/c2ccc(S(=O)(=O)c3ccc(Cl)cc3)nc2)cc1,11,9,0.5,-9,-8.6,-4,x,-0.1,-1.4,2
COc1ccc(N/C=C(\C=C\C#N)S(=O)(=O)c2ccccc2)cc1,9,12,0.7,14,-1.4,1,-3%,-1.3,-0.2,-12
Cc1ccc(NC(=O)CCNS(=O)(=O)c2ccccc2)cc1S(=O)(=O)N1CCOCC1,4,2,2.2,-4,5.1,-7,-5%,-1.1,1.3,-2
CC1CCc2cc(F)ccc2N1C(=O)CSc1nnc2c3ccccc3n(C)c2n1 (centres undefined),-5,8,1.8,-3,1.9,1,-6%,-0.2,-0.3,-2

# From PubChem
